Screening results from PubChem.
eIF4H FP inh – inhibitors of RNA binding by human eIF4H; Q15056; eIF4H fluorescence polarization binding assay; inhibition, % at 35 µM; 290,000 tested, 0.94% active; AID 2012;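 active = 50% or more with normal probe brightness, or confirmed in later tests; inconclusive = above 50% with abnormal brightness, or retests that disagree; inactive = below 50% or failed in later tests; about a fifth of its hits are not listed in these tables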;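 note: calls also rest on retests at 20 µM and on dose response follow-up; 0% = protein and probe with vehicle and 100% = probe without protein; strong numbers were not always called active; many hits fall short of the cut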
PABP polyA inh – blocks human PABP binding to poly(A) RNA; P11940; fluorescence polarization; inhibition, % at 35 µM; 290,000 tested, 1% active;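 active = 50% or more with normal probe brightness, or confirmed in later tests; inconclusive = above 50% with abnormal brightness, or retests that disagree; inactive = below 50% or failed in later tests; about a fifth of its hits are not listed in these tables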;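 note: calls also rest on retests at 20 µM and on dose response follow-up; controls were probe without protein and protein plus probe with vehicle; some compounds called inactive have numbers as strong as hits; many hits fall short of the cut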
Target sequence (P11940 whole entry, looked up): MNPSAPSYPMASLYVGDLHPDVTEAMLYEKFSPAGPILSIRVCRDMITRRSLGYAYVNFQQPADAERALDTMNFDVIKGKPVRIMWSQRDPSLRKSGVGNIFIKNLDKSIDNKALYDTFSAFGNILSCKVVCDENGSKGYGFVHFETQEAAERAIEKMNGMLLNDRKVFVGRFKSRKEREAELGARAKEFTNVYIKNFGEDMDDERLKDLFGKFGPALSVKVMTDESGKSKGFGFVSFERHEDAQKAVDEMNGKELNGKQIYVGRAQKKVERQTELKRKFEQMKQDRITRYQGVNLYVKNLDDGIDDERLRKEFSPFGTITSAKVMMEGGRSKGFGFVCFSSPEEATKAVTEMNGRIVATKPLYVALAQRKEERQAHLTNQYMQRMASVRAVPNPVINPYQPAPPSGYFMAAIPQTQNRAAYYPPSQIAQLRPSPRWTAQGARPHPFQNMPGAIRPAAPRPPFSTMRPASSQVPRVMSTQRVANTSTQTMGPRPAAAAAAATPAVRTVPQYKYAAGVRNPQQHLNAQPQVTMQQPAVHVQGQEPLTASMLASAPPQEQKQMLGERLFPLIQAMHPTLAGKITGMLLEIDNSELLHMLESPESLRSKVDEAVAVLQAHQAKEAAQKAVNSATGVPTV
Env fusion inh – blocks HIV Env-driven cell-cell fusion; inhibition, % at 12.3 µM; 360,000 tested, 1.1% active; HeLa-JRFL Env/CEM21 cell fusion, luciferase;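 active = mean replicate inhibition score of at least 50 and every replicate individually at or above 50; inconclusive = only one of the two criteria met; inactive = mean below 50 and not all replicates reaching 50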;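 note: 0% = plate neutral controls and 100% = maraviroc near 300 nM; one replicate is shown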
MT1-MMP act inh – MT1-MMP (human) activation inhibition | P50281 | HT1080 RFP-PRO-GFP cells, GFP/RFP ratio fluorescence, overnight; percent of plate control window, DMSO zero | GFP/RFP ratio change, % at 20 µM | 360,000 tested, 0.061% active | AID 651647;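 active = GFP/RFP ratio change of at least 30% with cell ATP level not reduced by more than half and red fluorescence within 50% of control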; note: strong numbers were not always called active
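system = RFP-PRO-GFP reporter HT1080 cells | dosing = 20 µM single dose, 1% DMSO | timing = overnight cell settling, then overnight compound exposure, 37 °C, 5% CO2 | read-out basis = GFP/RFP fluorescence ratio | controls = DMSO and RFP-L50D-GFP cell wells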
Rce1 inh – inhibitors of yeast Ras-converting enzyme. Q03530. yeast membranes, quenched prenylated peptide cleavage fluorescence. calls only. 290,000 tested, 0.27% active;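 active = fall in fluorescence gain of 50% or more versus controls, with final raw signal at or below 3038400; inconclusive = same 50% fall but final raw signal above 3038400; inactive = fall in fluorescence gain under 50%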;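 note: plate controls were neutral control wells for no effect and wells lacking membranes for full effect; tested at 10 µM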
Target sequence (Q03530 whole entry, looked up): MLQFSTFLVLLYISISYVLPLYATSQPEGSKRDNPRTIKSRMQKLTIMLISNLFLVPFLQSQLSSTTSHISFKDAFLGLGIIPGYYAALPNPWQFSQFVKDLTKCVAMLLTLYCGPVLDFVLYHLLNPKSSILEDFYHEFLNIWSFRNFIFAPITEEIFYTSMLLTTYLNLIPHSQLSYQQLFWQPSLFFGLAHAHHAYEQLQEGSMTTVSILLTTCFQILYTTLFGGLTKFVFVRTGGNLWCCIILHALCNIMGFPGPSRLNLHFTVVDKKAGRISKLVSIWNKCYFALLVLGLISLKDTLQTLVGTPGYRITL
Yeast UUG start – modulators of start codon recognition fidelity in yeast. S. cerevisiae UUG-firefly luciferase reporter, luminescence/redox ratio. activity score, % at 18.7 µM. 350,000 tested, 0.13% active;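 active = replicate mean at a twofold rise or more, about +100% in these data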;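 note: firefly luciferase made from a UUG start codon reports start codon fidelity; reporter light over untreated wells divided by growth signal over untreated wells; some hits fall short of that in this replicate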
CSC inhib – blocks cancer stem cells; cancer stem cell-like cells viability, luminescence; inhibition, % at 7.5 µM; 300,000 tested, 1.1% active;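 active = mean at 75% or more and at least half the replicates too; inconclusive = mean and replicates disagree; tested in HMLE shEcad cells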;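 note: 0% = median of negative and 100% = median of positive control wells; the first replicate is given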
eIF4H FP inh retest – also measured in eIF4H FP inh; calls as there; inhibition, %; compound at 20 µM; confirmation average;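 mean of two retest wells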
PABP polyA inh retest – also measured in PABP polyA inh; calls as there; inhibition, %; compound at 20 µM; confirmation repeats;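 mean of two retest wells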
MT1-MMP act inh RFP – further read-out of MT1-MMP act inh, marked with its call; RFP signal change, %; measured here: RFP expression control read;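 0 = vehicle wells; hits needed this value within 50% of zero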
Numbers without * were called inactive; i = inactive; ? = inconclusive; · = no result given; + = active, no number; & = joins results of further samples. The list is partial (hit frequency here may not be typical).

SMILES	eIF4H FP inh	PABP polyA inh	Env fusion inh	MT1-MMP act inh	MT1-MMP act inh RFP	Rce1 inh	Yeast UUG start	CSC inhib	others
CN1CCCN(C(=O)c2ccc(Br)s2)CC1	1	-5	-2	-3	3	i	-10	-9
Cc1onc(-c2ccccc2)c1C(=O)NC(=S)NNC(=O)c1ccncc1	12	-12	·	9	3	i	-26	-2
CN(C(=O)c1ccccc1OC1CCN(S(C)(=O)=O)CC1)C1CCOC1 (stereo not given)	-1	1	-9	4	5	i	·	-10
Cc1ccc(/C(N)=N/OC(=O)COc2ccccc2Cl)cc1	4	-7	·	5	0	i	-20	22
CN(C(=O)CSC1=Nc2ccccc2C2=NC(c3ccccc3)C(=O)N12)C1CCCCC1 (stereo not given)	-7	-1	17	-2	-1	i	-1	-23
CC(=O)Nc1ccc(/C(C)=N/NS(=O)(=O)c2ccccc2)cc1	7	19	1	1	1	i	0	-10
Cc1nn(-c2ccccc2)c(N)c1N=Nc1cccc(S(=O)(=O)N2CCOCC2)c1	-4	11	4	-3	-6	i	-8	15
COc1cccc(/C(C)=N/NS(=O)(=O)c2ccc(Cl)cc2)c1	-3	10	-12	-9	0	i	·	4
CN1CCN(C(=O)CSc2ccc(Cl)cc2)CC1	5	-3	-3	2	1	i	·	7
O=c1cc(N2CCCCC2)c(-c2ccccc2)n[nH]1	-1	6	0	-3	1	i	·	-5
CC(C)c1ccc(S(=O)(=O)c2cnc(=S)[nH]c2N)cc1	1	-9	0	-1	-4	i	-19	8
COc1cccc(C(=O)Nc2ccc(NC(=O)C3CC=CCC3C(=O)O)cc2)c1 (stereo not given)	12	4	-4	-4	6	i	5	-15
O=C(NCCc1ccccc1)C1(S(=O)(=O)c2ccc(Cl)cc2)CC1	-6	-8	-4	3	0	i	7	-4
CC(Sc1nc(N)c2c3c(sc2n1)CSC(C)(C)C3)C(=O)Nc1ccccc1 (stereo not given)	-5	4	9	4	-6	i	·	28
O=C1CC(N2CCCc3ccccc32)C(=O)N1c1ccccc1Cl (stereo not given)	3	4	·	-5	5	i	-10	-6

Brought forward from above: three compounds, then new ones.
SMILES	eIF4H FP inh	PABP polyA inh	Env fusion inh	MT1-MMP act inh	MT1-MMP act inh RFP	Rce1 inh	Yeast UUG start	CSC inhib	others
O=C(NCCc1ccccc1)C1(S(=O)(=O)c2ccc(Cl)cc2)CC1	-6	-8	-4	3	0	i	7	-4
CC(Sc1nc(N)c2c3c(sc2n1)CSC(C)(C)C3)C(=O)Nc1ccccc1 (stereo not given)	-5	4	9	4	-6	i	·	28
O=C1CC(N2CCCc3ccccc32)C(=O)N1c1ccccc1Cl (stereo not given)	3	4	·	-5	5	i	-10	-6
COc1ccc(C(=O)C(O)C(c2ccc(C)cc2)N2CCOCC2)cc1OC (stereo not given)	-6	1	4	0	1	i	-12	-13
CCOc1ccccc1-c1nc(-c2cc3ccccc3nc2OC)no1	54*	46	·	-7	-6	i	-21	-4	eIF4H FP inh retest=65*;PABP polyA inh retest=49
O=C(COC(=O)c1ccccc1C(=O)c1ccccc1)NCCc1ccc(Cl)cc1Cl	-10	1	13	0	-10	i	-21	-1
C=CCOc1cccc(CNCCCN2CCOCC2)c1	-8	7	-1	-4	7	i	·	-1
CC1CCCCN1c1nnc(NC(=O)Cn2c(=O)oc3ccccc32)s1 (stereo not given)	-6	-1	-10	2	1	i	-19	-9
N#Cc1ccc(-c2nc3ccccc3nc2-c2ccccc2)cc1C#N	-1	-7	·	-1	-3	i	4	-9
CCCc1c(C(=O)N/N=C/C2CC=CCC2)nnn1-c1nonc1N (stereo not given)	·	·	9	1	0	·	-7	·
COc1ccc(OC)c(/C=C/C(=O)N2CCN(S(=O)(=O)c3cc(C)ccc3C)CC2)c1	·	·	40	-7	-5	·	-10	·
Cc1cc(Cl)c(S(=O)(=O)Nc2ccc3c(c2)OCCO3)cc1OCC(=O)NC1CCCCC1	-2	-5	-23	1	-11	i	-16	-15
O=C(COc1ccc(F)cc1Cl)Nc1cccc(S(=O)(=O)N2CCCCCC2)c1	·	·	·	4	-6	·	-5	-13
O=C(CCN1C(=O)c2ccccc2S1(=O)=O)Nc1ccccc1O	4	12	-20	9	9	i	-11	-2
COc1ccc(C(=O)Nc2ccc(C3(C#N)CCCC3)cc2)cc1	5	2	20	6	-7	i	-15	-10
Cc1cnc(C(=O)Nc2cccc(-c3nnc4n3CCCCC4)c2)cn1	·	·	·	-2	0	i	-12	-10
CC(=O)Nc1ccc(S(=O)(=O)N(C)CC(=O)NNc2c(F)c(F)cc(F)c2F)cc1	·	·	·	-1	0	·	-18	12
CC1(C)CC(=O)c2c(Cc3ccccc3)n[nH]c2C1	-6	-2	·	4	1	i	-13	-9
C/C=C(/C)C(=O)O[C@H]1[C@@H](O)c2c(ccc3ccc(=O)oc23)OC1(C)C	-2	-4	-35	3	-8	+	2	-1
C[C@H]1C(=O)N(C)CCN1C(=O)c1cccc(OC2CCN(CC(C)(C)C)CC2)c1	·	·	4	5	4	i	-9	-4
CN(C)CCNC(=S)Nc1ccc(Cl)cc1Cl	-3	6	-35	-3	4	i	·	-10
O=C(c1cc2ccccc2s1)N1CCN(c2ccccn2)CC1	-4	0	-12	0	1	i	-2	11
CCCCN(C(=O)c1ccc(S(=O)(=O)N2CCC(C)CC2)cc1)C1CCS(=O)(=O)C1 (stereo not given)	·	·	-1	1	4	i	-2	-10
COc1ccccc1C1NC=C([N+](=O)[O-])C=C1[N+](=O)[O-] (stereo not given)	12	1	14	-4	-5	·	·	·
Cc1cc(NC(=O)c2cccc(F)c2)no1	-6	8	·	1	2	i	-9	2
COc1ccc(/C(O)=C2/C(=O)C(=O)N(CCN3CCOCC3)C2c2ccccn2)cc1 (stereo not given)	12	26	-11	1	8	·	-9	·
O=c1c2ccccc2oc2ccc(-c3ccc4cc[nH]c4c3)cc12	·	·	·	11	6	·	-21	89*
COc1ccc2nc(NC(=O)CN3CCOCC3)sc2c1	-10	1	-96	-2	-2	i	-10	-5
NC(Cc1ccccc1)c1csc(Nc2ccc(C(=O)NCCCO)cn2)n1 (stereo not given)	·	·	-6	-4	2	·	-21	·
COc1ccccc1NS(=O)(=O)c1cc(NC(=O)C(C)(C)C)ccc1N1CCOCC1	·	·	·	1	-3	i	·	-9
Cc1nc(C(C)NC(=O)CCc2nnc(-c3ccsc3)o2)cs1 (stereo not given)	-13	-8	-7	-4	0	i	·	-13
O=C(NC1CCCC1)c1cccc(Cn2cc([N+](=O)[O-])cn2)c1	8	6	-21	0	8	i	-6	-13
CC1CCN(c2ncnc3nc[nH]c23)CC1	0	14	12	-3	2	i	-4	-1
Oc1ccccc1-c1nc(NC2CCCC2)c2ccccc2n1	-4	-6	41	-9	-4	i	-15	26
CCn1cc(C(=O)N[C@@H](CCSC)C(=O)NCCCN2CCOCC2)c(=O)c2cc3c(cc21)OCO3	3	2	-6	-1	0	i	-1	-2
COC(=O)c1sc2ccccc2c1NC(=O)c1ccc(S(=O)(=O)N2CCC(C)CC2)cc1	-11	79	·	-2	-3	i	-6	8	eIF4H FP inh retest=0;PABP polyA inh retest=8
CCOC(=O)N1CCC(Nc2nc3ccccc3n3nnnc23)CC1	?	48*	·	-9	2	i	-11	·	PABP polyA inh retest=103*
CCCCCCN(C(=O)CCCCCN1C(=O)NC(c2ccccc2)C(C(=O)OCc2ccccc2)=C1C)C(C(=O)NCCCC)c1ccc(OCC(=O)OC)c(C(=O)OC)c1 (stereo not given)	-3	-2	-97	·	·	·	·	·
CCOc1ccc(CCNC(=O)c2ccc(F)c(S(=O)(=O)N3CCOCC3)c2)cc1OCC	-2	-2	·	4	-4	i	-12	6
CC(Oc1ccccc1)c1ccnn1S(=O)(=O)c1ccccc1 (stereo not given)	0	3	-54	1	2	·	-16	4
NC(=O)[C@@H]1CC2(CC(c3cccc(NC(=O)CC(c4ccccc4)c4ccccc4)c3)=NO2)CN1C(=O)COc1ccc(Cl)cc1 (stereo not given in full)	5	3	1	5	-6	i	-16	12
COc1cccc2cc(CC(=O)c3ccc(C)cc3C)c(=O)oc12	6	6	-66	6	2	i	-6	1
CC(C)NC(=O)C1CC(=O)N(C(C)c2ccccc2)C1 (stereo not given)	-2	-3	-18	-3	-3	i	-9	-17
CCN(C(=O)c1cc(OC)c(OC)c(OC)c1)C1CCCCC1	·	·	14	-1	3	·	-16	·
CCCC(C)(C)C(=O)N1CCC1(C)C(=O)Nc1cccc2ccccc12 (stereo not given)	·	·	-7	-1	1	·	-3	·
COC(=O)C1C(=O)C2=C(CC1C)NC(C)=C(C(=O)OC1CCCCC1)C2c1ccc(N(C)C)cc1 (stereo not given)	-7	50	-153	-6	-8	i	-6	7	eIF4H FP inh retest=-1;PABP polyA inh retest=3
O=C(CCNC(=O)c1ccccc1Cl)Nc1nc(-c2ccc3ccccc3c2)cs1	-1	6	2	-10	-15	i	-6	23
CCOC(=O)C1=C(C)N=c2s/c(=C/c3cccc([N+](=O)[O-])c3O)c(=O)n2C1c1ccccc1 (stereo not given)	0	49	-5	8	7	i	-9	30
CCOc1ccc(-n2nc3cc(C)c(N)cc3n2)cc1	8	3	-99	8	-2	i	-3	6
COc1cc(/C=C/C(=O)O)cc(S(=O)(=O)N2CCCc3ccccc32)c1OC	9	7	2	-1	2	i	-3	-11
COc1ccc(NC(=O)CC(C)c2ccccc2)cc1S(=O)(=O)N1CCOCC1 (stereo not given)	·	·	·	-1	2	·	-9	-13
COc1ccccc1C(=O)Nc1ccccc1SC	-2	-2	-46	-2	1	i	-3	7
CCOc1ccc(/C=C2\SC(=S)N(CCC(=O)Nc3ccccc3C(=O)O)C2=O)cc1	-2	7	-16	2	2	i	-15	20
NS(=O)(=O)c1cccc(NC(=O)CN2CCN(Cc3ccc4c(c3)OCO4)CC2)c1	-11	35	4	-2	0	i	-16	-9
CCc1nc2ccc(C(=O)NCCNC(C)=O)cn2c1N(CC)Cc1cccc(Br)c1	·	·	-28	0	4	·	-12	·
Cc1c(C(=O)OCC(=O)N(C)c2ccccc2)oc2ccccc12	0	1	18	3	2	i	-6	-4
O=C(Cn1ccc([N+](=O)[O-])n1)NCC1CCCO1 (stereo not given)	-1	-2	16	-2	2	i	-2	-8
CCOc1ccc(OCCCC(=O)N(C)CC(=O)Nc2ccc(N3CCOCC3)cc2)cc1	·	·	·	·	·	i	-18	-16
Cc1cc(C(=O)CCC(=O)NCC2COc3ccccc3O2)c(C)s1 (stereo not given)	·	·	·	-2	1	i	-10	·
Cc1ccccc1OCC(O)Cn1c(=N)n(CCN2CCOCC2)c2ccccc21 (stereo not given)	-2&1	11&-2	-56&-23	-9&-4	-7&-1	i	-1&-17	12&-15
Fc1cc(Br)ccc1NC(=S)Nc1ccccc1	-4	3	-9	0	4	i	-15	1
NC(=O)COC(=O)c1cccc(S(=O)(=O)N2CCCc3ccccc32)c1	-3	2	20	1	-5	i	10	21
CCn1c(=O)n(CC(=O)NCC2CCCO2)c(=O)c2c3c(sc21)CCCC3 (stereo not given)	-9	-3	-7	1	-1	i	-3	-13
Cc1ccc2[nH]cc(CCNC(=O)/C=C/c3ccco3)c2c1	5	2	-4	3	-3	i	-16	37
Cc1cc(C(=O)NNC(=O)c2cccs2)nn1C(C)(C)C	-13	3	-12	-3	-1	i	-27	-2
